Screening data deposited in PubChem by several laboratories.
AF4-AF9 inh – inhibitors of AF4 peptide binding to AF9, primary screen, biochemical, AlphaScreen, biotin-AF4 peptide, FLAG-AF9, single point; 0.47% of 350,000 active; inhibition, % at 10 µM;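 active = every replicate reaching a set inhibition limit, whatever the replicate mean, cut at about 25% in these data; inconclusive = mean inhibition reaches that limit but some replicates miss it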;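 note: 0% = plate neutral control median and 100% = total signal loss; the record names both 10 and 1 µM as test concentration; the first replicate is given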
FGF22 binding – binders of human FGF22 protein, primary screen, FGF22 synaptogenesis inhibitor project, biophysical, thermal shift, single point; recombinant FGF22 thermal shift, SYPRO orange fluorescence; percent of sucrose octasulfate shift, DMSO zero; calls only at 9.99 µM; 1.5% of 340,000 active; AID 651658, 2012;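 active = melting point raised past a set limit in the mean and every replicate; inconclusive = no clear call; three in four hits are not shown here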
Target sequence (Q9HCT0 whole entry, looked up): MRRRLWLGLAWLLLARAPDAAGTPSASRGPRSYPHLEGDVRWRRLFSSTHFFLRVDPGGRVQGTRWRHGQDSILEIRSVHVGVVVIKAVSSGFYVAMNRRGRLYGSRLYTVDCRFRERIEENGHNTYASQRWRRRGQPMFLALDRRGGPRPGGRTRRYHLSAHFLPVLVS
HNF4A DNA FP – change in binding of human HNF4A to DNA, primary screen, biochemical, fluorescence polarization, FITC-DNA. Hepatocyte nuclear factor 4-alpha (Homo sapiens), P41235. 1 h. activity change, % at 10 µM. 0.3% of 360,000 active; in the data active = activity change above about 30%, passing the limit was not always enough;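 note: controls were the assay level and a saturating level of protein; the project sought stronger binding though the title names inhibitors; some compounds called inactive have numbers as strong as hits; positive values seem to mean higher polarization but the record does not say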
Target sequence (P41235 whole entry, looked up): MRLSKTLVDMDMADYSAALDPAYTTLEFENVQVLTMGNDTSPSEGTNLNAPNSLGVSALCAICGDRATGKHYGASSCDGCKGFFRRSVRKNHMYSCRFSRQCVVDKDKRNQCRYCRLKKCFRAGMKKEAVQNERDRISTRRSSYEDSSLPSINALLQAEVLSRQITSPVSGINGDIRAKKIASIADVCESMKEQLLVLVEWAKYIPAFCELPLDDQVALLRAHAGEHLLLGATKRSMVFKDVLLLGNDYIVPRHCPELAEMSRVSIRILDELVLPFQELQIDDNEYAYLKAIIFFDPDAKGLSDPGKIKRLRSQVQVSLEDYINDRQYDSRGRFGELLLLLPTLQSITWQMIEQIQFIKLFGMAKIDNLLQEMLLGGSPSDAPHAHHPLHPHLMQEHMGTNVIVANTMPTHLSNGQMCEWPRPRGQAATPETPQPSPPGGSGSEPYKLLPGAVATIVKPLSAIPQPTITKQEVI
RanGTP-Impb inh – inhibitors of RanGTP-importin-beta interaction, primary screen, biochemical, FRET, CFP-Ran, YFP-importin-beta, homogeneous | Ran GTPase (GTP-bound) - importin-beta complex | cell-free CFP-Ran/YFP-importin-beta FRET ratio | inhibition, % (test concentration not listed) | 1.1% of 300,000 active | AID 2216, 2009;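 active = most replicates above 15%; inconclusive = exactly half above 15%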;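 note: 0% = DMSO wells and 100% = Ran loaded with GDP instead of GTP; wells of about 40 µL received 100 nL stock; the first replicate is given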
Ecoli growth – E. coli growth inhibition, primary screen, OD600. Escherichia coli growth, 23 h; hits give low values. OD600 absorbance (test concentration not listed). 0.21% of 330,000 active;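 active = OD600 absorbance below the run mean of sample wells minus 3.6 SD, in any replicate, cut at about 0.56 in these data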;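 note: stock transfer was 300 nL into about 60 µL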
UCH37 DUB inh – inhibitors of human UCH37 deubiquitinase, primary screen, biochemical, Ub-AMC cleavage, fluorescence. 0.33% of 330,000 active. inhibition, % (test concentration not listed). purified proteasome/UCH37;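 active = mean of two replicates above 20%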;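 note: 0% = compound-free wells with enzyme and 100% = wells lacking proteasome; stock transfer was 100 nL into about 20 µL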
Target sequence (Q9Y5K5 whole entry, looked up): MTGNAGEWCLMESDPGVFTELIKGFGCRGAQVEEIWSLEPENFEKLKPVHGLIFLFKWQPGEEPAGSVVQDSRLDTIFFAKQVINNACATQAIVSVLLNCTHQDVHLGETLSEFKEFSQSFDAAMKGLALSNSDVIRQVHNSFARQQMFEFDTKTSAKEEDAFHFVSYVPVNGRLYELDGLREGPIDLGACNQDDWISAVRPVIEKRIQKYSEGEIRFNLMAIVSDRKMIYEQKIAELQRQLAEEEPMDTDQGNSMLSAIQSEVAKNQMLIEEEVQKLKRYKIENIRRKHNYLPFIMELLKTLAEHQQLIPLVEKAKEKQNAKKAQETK
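Material: Human UCH37 enzyme supplied as purified proteasome complex | Schedule: 30 min compound-proteasome preincubation then 25 min substrate reaction, room temperature | Detection: AMC fluorescence from Ub-AMC cleavage, excitation 355 nm, emission 460 nm | Benchmarks: Wells without proteasome as full block, compound-free enzyme plus substrate as uninhibited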
Vif TR-FRET – inhibitors of Vif binding to APOBEC3G peptide, primary screen, biochemical, TR-FRET, GST-Vif 1-94, biotin-A3G peptide, dose response retest (AID 1117319); TR-FRET GST-Vif / biotin-A3G peptide binding; higher % means a stronger effect; test concentration not given here; strong numbers were not always called active; Virion infectivity factor (Human immunodeficiency virus type 1 group M subtype B (isolate …; 0.57% of 260,000 active; inhibition, %; hits with a dose series show IC50 in µM;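 active = above the screen mean plus three standard deviations and confirmed in dose response; inconclusive = results disagree or hit not tested in dose response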;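 note: Vif residues 1-94 fused to GST binding biotinylated APOBEC3G peptide 110-148; 0% = full assay without inhibitor and 100% = GST in place of GST-Vif; retest series ran down from 100 µM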
Numbers without * were called inactive; i = inactive; ? = inconclusive; · = no result given; & = joins results of further samples. Only part of the results is shown, so the mix of outcomes need not match the whole.

SMILES | AF4-AF9 inh | FGF22 binding | HNF4A DNA FP | RanGTP-Impb inh | Ecoli growth | UCH37 DUB inh | Vif TR-FRET
COc1ccc(CN2CC(=O)N3[C@H]4c5ccccc5OC[C@@H]4[C@H](c4ccccc4)[C@]3(C)C2=O)cc1 | -6.2 | i | -16 | · | · | 0.4 | ·
O=S1(=O)C[C@@H](N2CCCC2)[C@H](COCc2ccccc2)N1 | -1.0 | i | 1.2 | · | · | · | ·
Cc1ccccc1CC(=O)NC1CCN(Cc2ccccc2)CC1 | -7.3 | i | 3.6 | -0.8 | 0.72 | 3.2 | ·
COc1ccc(NC(=O)CSCc2ccccc2C)cc1 | · | · | -1.9 | -0.6 | 0.7 | 6.0 | ·
COc1ccccc1C(=O)NCCCn1cc(Br)c(C)n1 | 2.0 | i | -1.0 | -1.0 | 0.73 | -2.1 | -2%
CCCCn1c(-c2cccc(F)c2)nc2c1c(=O)[nH]c(=O)n2CC(C)C | -5.1 | i | -1.6 | 8.3 | 0.67 | -9.6 | ·
Cc1cc(C)c(NC(=O)COC(=O)c2c(C)noc2C)c(Cl)c1 | -0.5 | i | 0.8 | · | 0.7 | -1.6 | 0%
CCc1ccc(-c2nc(SCC(=O)NC3CCS(=O)(=O)C3)n[nH]2)cc1 (centres undefined) | -1.6 | i | 1.9 | · | 0.71 | 3.7 | 34%
CC(=O)/C=C\c1ccccc1OC(=O)c1cc2ccccc2oc1=O | -17 | i | 2.4 | -6.2 | 0.73 | -4.5 | ·
NC(=O)CC(NC(=O)c1cccc(Br)c1)c1ccc(NCC2CC2)c([N+](=O)[O-])c1 (centres undefined) | 1.4 | i | 3.0 | 1.3 | 0.71 | 1.4 | ·
O=c1nc(SCc2cccc(C(F)(F)F)c2)nc2ccccn12 | -4.3 | i | 2.5 | 5.6 | · | · | 0%
CC1(C)CC[C@]2(C(=O)O)CC[C@]3(CO)C(=CCC4[C@@]5(C)C[C@H](O)[C@H](O)[C@@](C)(C(=O)O)C5CC[C@]43C)[C@@H]2C1 (some centres undefined) | -3.9 | i | -1.9 | · | · | -0.2 | ·
O=[N+]([O-])c1cccc(/C=N\N2CCN(Cc3ccccc3Cl)CC2)c1 | · | · | 42* | 2.4 | · | · | 3%
Cc1cc(C)cc(NC(=O)C2CCCN2/C=C/C(=O)C(F)(F)F)c1 (centres undefined) | · | · | 6.3 | 3.9 | 0.72 | 7.8 | ·
COc1cccc(NC(=S)NCc2ccncc2)c1 | -17 | i | -3.4 | 1.3 | 0.7 | 6.4 | 21%
Cc1cc(=O)[nH]c(SCC(=O)Nc2ccccc2C#N)c1C#N | · | · | -2.2 | -5.2 | 0.66 | -0.4 | 5%
CCn1c(SCC(=O)c2ccc3c(c2)Cc2ccccc2-3)nnc1-c1ccc(N)cc1 | · | · | 3.2 | -4.0 | 0.74 | 7.5 | 0%
C=C(C(=O)O)C1CCC2(C)CCCC(C)(O)C2C1 (centres undefined) | 3.2 | i | 0.0 | 3.8 | 0.74 | 4.4 | ·
CC1CN(C(=O)COC(=O)COc2ccc(C#N)cc2)CC(C)O1 (centres undefined) | -10 | i | 0.7 | · | 0.68 | 0.9 | ·
O=C(NC(=S)Nc1ccc2[nH]c(=O)[nH]c2c1)c1ccccc1[N+](=O)[O-] | -0.2 | i | -0.9 | 1.1 | 0.71 | 1.0 | ·
CCOC(=O)C1=C(C)NC(SCC(N)=O)=C(C#N)C1c1cccs1 (centres undefined) | · | · | -1.9 | ? | 0.7 | 3.6 | -3%
CCN1C[C@@H]2[C@@H]3C(=O)N(C)C(=O)[C@@H]3[C@](C)(C1=O)N2C(=O)c1ccc(C)cc1 | 2.1 | i | 2.6 | · | · | 0.9 | ·
Cc1c(O)c(CN2CCCCC2)cc2c3c(c(=O)oc12)CCC3 | · | · | 2.1 | 37* | 0.75 | i | 2%
COc1ccc(C(=O)OCC(=O)c2cc(C)n(CC3CCCO3)c2C)cc1[N+](=O)[O-] (centres undefined) | 8.2 | i | 0.4 | · | 0.65 | -1.3 | -8%
CCOc1ccc(NC(=O)CN(C)C(=O)c2ccc(=O)[nH]c2)cc1OCC | 0.3 | i | -0.9 | -2.6 | 0.72 | -0.9 | ·
Continuation:
SMILES | AF4-AF9 inh | FGF22 binding | HNF4A DNA FP | RanGTP-Impb inh | Ecoli growth | UCH37 DUB inh | Vif TR-FRET
CCCCC(c1nnnn1CCOC)N1CCN(C(=O)c2ccco2)CC1 (centres undefined) | · | · | 1.6 | -9.6 | 0.78 | 4.6 | -5%&33%
CCOc1ccccc1CN1CCC(n2nccc2NC(=O)CCc2ccccc2)CC1 | 2.6 | i | 1.0 | 0.9 | 0.71 | 6.4 | ·
O=C(NCC12CC3CC(CC(C3)C1)C2)c1cc2n(n1)C(C(F)(F)F)CC(c1ccco1)N2 (centres undefined) | · | · | -1.7 | 1.9 | 0.7 | 2.0 | -4%
COc1ccc(CC(=O)Nc2cc(Cl)ccc2O)cc1 | · | · | -8.0 | -7.4 | 0.62 | 4.5 | 3%
CCOC(=O)C1(C)CCCN(C(=O)c2ccc(OC)c(OC)c2)C1 (centres undefined) | 1.9 | i | -1.0 | · | · | · | ·
COc1cccc(CN2CCC2(C)C(=O)NCc2cccc(C(F)(F)F)c2)c1OC (centres undefined) | 4.8 | i | 5.2 | · | · | · | ·
CCCN(CC(=O)Nc1ccc(Cl)cc1Cl)C(=O)c1ccc(=O)[nH]c1 | 0.9 | i | 2.0 | 1.2 | 0.68 | 2.2 | ·
C=CCNC(=S)N/N=C(\C)c1cccc(OC)c1 | · | · | 0.1 | 0.0 | · | · | ?
COc1ccccc1CNC(=O)CC(NS(=O)(=O)c1ccc(C)cc1)c1ccco1 (centres undefined) | · | · | -1.3 | 4.0 | 0.72 | 0.1 | 2%&-6%
Cc1ccc(C(=O)c2cc([N+](=O)[O-])ccc2N2CC(C)OC(C)C2)cc1 (centres undefined) | 15 | i | -0.8 | 1.2 | · | · | 11%
CC(C)CNC(=O)c1cccc(NC(=O)CSc2ccccc2)c1 | · | · | -2.7 | -1.5 | · | -2.3 | 10%
O=C(c1cc(COc2ccc(F)c(F)c2)on1)N1CCSCC1 | -3.1 | i | -0.2 | -0.8 | 0.72 | 2.2 | ·
Cc1ccc([N+](=O)[O-])cc1NC(=O)CN(C(=O)c1ccc(Cl)cc1)C1CCCCC1 | · | · | -4.4 | -0.5 | 0.73 | 2.9 | 24%
COc1ccccc1NC(=O)c1ccc(COc2ccccc2OC)o1 | · | · | -6.6 | -0.3 | 0.69 | 2.9 | -5%
Cc1ccc(CSc2nnc(-c3ccc(S(=O)(=O)N4CCCC4)cc3)o2)cc1 | · | · | 4.0 | 4.1 | 0.75 | 2.9 | -7%
COc1ccccc1N(CN1C(=O)c2ccccc2C1=O)C(=O)c1cccnc1 | · | · | -2.3 | 0.9 | 0.71 | 4.1 | -1%&-10%
CCC(CC)C(=O)Nc1c2cnn(-c3ccccc3)c2nc(=O)n1-c1ccccc1 | · | · | -1.5 | -0.3 | 0.66 | -23 | -10%
CCn1nc(C)c(CNC(=O)c2ccc(OC3CCN(Cc4ccccn4)CC3)cc2)c1C | -1.2 | i | 1.4 | 2.9 | 0.74 | -3.3 | ·
CCCC[C@H]1C2=C3[C@@H](CC(C(=O)OC)=C[C@@H](C(=O)OC)[C@H]3C(C)(C)C2=O)n2c(=O)n(-c3ccccc3)c(=O)n21 | -1.4 | i | -0.1 | -3.5 | · | 5.5 | ·
COCCOC(=O)c1c(N)n(CCCN2CCOCC2)c2nc3ccccc3nc12 | -5.2 | i | -4.0 | 11 | 0.69 | i | 2%
C/C(=N\NC(=O)COc1cccc2ccccc12)c1cccs1 | -2.4 | i | -0.6 | 0.0 | · | · | 3%
O=C1/C(=C/c2ccc(Cl)cc2)SC(=S)N1CCC(=O)N1CCCCC1CCO (centres undefined) | 5.6 | i | 8.3 | -1.3 | 0.68 | 5.8 | 0%
COc1ccc(Br)cc1CN1C(=O)NC2(CCCCCC2)C1=O | -3.3 | i | -0.9 | 4.0 | 0.59 | 1.3 | ·
c1ccc(CCc2ccccc2-c2nc(-c3cccnc3)no2)cc1 | · | · | 1.1 | 6.1 | 0.66 | -1.1 | 1%
CCOC(=O)c1c(N)n[nH]c1-c1ccc(OC)cc1 | · | · | -1.6 | 3.7 | 0.67 | 3.0 | 0%

With a hit mark in RanGTP-Impb inh (from the list above):
smiles	AF4-AF9 inh	FGF22 binding	RanGTP-Impb inh	UCH37 DUB inh	Vif TR-FRET
Cc1c(O)c(CN2CCCCC2)cc2c3c(c(=O)oc12)CCC3	·	·	37*	i	2%

More records:
SMILES | AF4-AF9 inh | FGF22 binding | HNF4A DNA FP | RanGTP-Impb inh | Ecoli growth | UCH37 DUB inh | Vif TR-FRET
CN(Cc1ccon1)C(=O)CC1C(=O)NCCN1Cc1ccccc1C(F)(F)F (centres undefined) | -2.9 | i | 2.4 | 2.4 | 0.71 | -5.4 | ·
Cc1ccc(C(=O)N[C@H](C(=O)Nc2ccc(F)cc2)C(C)C)cc1 | -0.9 | i | 0.4 | 1.7 | 0.7 | 1.9 | 4%
COC(=O)[C@@]12C[C@@H](CC(=O)N3CCCCC3)C(=O)N(Cc3cccc4ccccc34)C1=CCC(C)(C)C2 | 0.6 | i | 0.0 | · | · | · | ·
N#Cc1c(N)sc(=S)c2c1CCCCC2 | · | · | -14 | -14 | 0.68 | 8.3 | 4.2µM*
N#Cc1nc(COc2ccccc2Cl)oc1N1CCCCCC1 | 9.0 | i | 3.4 | 1.7 | 0.74 | 7.9 | 2%
COc1ccc(S(=O)(=O)Cc2ccc(C(=O)NC(C)C)o2)cc1 | -2.8 | i | 7.9 | -4.3 | 0.77 | 5.9 | 8%
Cc1nnc(N(C)C(=O)c2ccncc2)s1 | -0.7 | i | 3.2 | 1.7 | 0.68 | 0.1 | 4%
C=CCONC(=O)c1cc(OCC(F)(F)F)ccc1OCC(F)(F)F | · | · | -1.5 | 4.5 | 0.67 | 1.1 | 0%
Cc1cc(C)nc(N2CCC(C(=O)NC3CC3)CC2)n1 | 0.5 | i | -2.1 | 4.0 | 0.68 | -5.5 | ·
CCOc1cccc2cc(-c3csc(NC(=O)CCC(=O)NCCN4CCCCC4C)n3)c(=O)oc12 (centres undefined) | 5.3 | · | 2.5 | -3.4 | 0.67 | -39 | 0%
COc1ccc(CC(=O)NCc2ccccn2)cc1OC | · | · | 0.5 | 0.1 | 0.67 | -1.1 | -2%
CCc1nnc(NC(=O)c2ccc3ncsc3c2)s1 | 16 | i | 1.9 | 2.5 | 0.69 | -1.6 | -33%
COc1ccc(N2C(=O)c3ccccc3C2O)cc1 (centres undefined) | -2.4 | i | 0.2 | 2.1 | 0.7 | -0.1 | ·

Shown as labelled records: 2 of the compounds above
Compound: N#Cc1nc(COc2ccccc2Cl)oc1N1CCCCCC1
  AF4-AF9 inh: 9.0
  FGF22 binding: i
  HNF4A DNA FP: 3.4
  RanGTP-Impb inh: 1.7
  Ecoli growth: 0.74
  UCH37 DUB inh: 7.9
  Vif TR-FRET: 2%
Compound: Cc1nnc(N(C)C(=O)c2ccncc2)s1
  AF4-AF9 inh: -0.7
  FGF22 binding: i
  HNF4A DNA FP: 3.2
  RanGTP-Impb inh: 1.7
  Ecoli growth: 0.68
  UCH37 DUB inh: 0.1
  Vif TR-FRET: 4%
